Source: PubChem (several laboratories)
RN4220 kill: growth inhibition of S. aureus RN4220, primary screen, OD600. 330,000 compounds, 0.33% hits. 16 h. AID 1259311, 2017. inhibition, % (concentration not given with the values);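 active = z-score of -3 or lower and OD600 up to 0.18 on both plates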;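 note: plate controls were untreated cells for no effect and reference antibiotic for full effect; stock transfer was 100 nL into about 80 µL; one replicate is shown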
Mtb hypoxia rep: PubChem AID 1159583. 300,000 compounds, 0.1% hits. fluorescence inhibition, % (test concentration not listed). M. tuberculosis hypoxia-regulated fluorescent reporter, fluorescence;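 active = 35 to 45% if threefold the growth effect, above 45% if 1.5-fold the growth effect; inactive = the rest, general growth blockers included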;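 note: wells of about 50 µL received 100 nL stock; 0% = vehicle wells and 100% = reference inhibitor wells; whole bacteria with a GFP reporter of the hypoxia response; strong numbers were not always called active; many hits fall short of the cut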
Sa ugtP lethal: growth inhibition of ugtP-null S. aureus, primary screen, RN4220 ugtP deletion, OD600 | 16 h; some inactives read as strong as hits | growth inhibition, % (concentration not given with the values) | 330,000 compounds, 0.54% hits;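 active = z-score under -3 and OD600 up to 0.15 on both plates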;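 note: plate controls were untreated wells for no effect and antibiotic for full effect; wells of about 80 µL received 100 nL stock; the first replicate is given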
BJeLR viability: MLPCN primary cell-based screen for lethality selective to Ras in HRASV12 cells; BJeLR (HRASV12) viability, CellTiter-Glo ATP luminescence, 48 h; reference of the scale not given here; inhibition, % (test concentration not listed); 300,000 compounds, 0.17% hits;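 active = replicate mean above 50%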;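 note: 50 nL library stock added to about 25 µL; numbers are from one replicate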
Autofluor counter: compound fluorescence in toxin protease inhibitor counterscreen. 360,000 compounds, 3.1% hits. fluorescence intensity (test concentration not listed). AID 624483. compound autofluorescence counterscreen, microsphere flow cytometry; hits give high values;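 active = at least 3 SD above the mean of all compounds, about 16000 in these data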;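 note: 100 nL of 1 mM stock went into each well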
PrP 5UTR inh: inhibition of PrP 5' UTR reporter expression; cell-based PrP 5' UTR mRNA reporter, plate reader; inhibition, % (no concentration beside the values); 340,000 compounds, 0.35% hits; AID 488862, 2010;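 active = every replicate at 50% or more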;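 note: 0 = median of the neutral control wells; tested in H4 reporter cells; numbers are from one replicate; inactives centre near -14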
Mtb hypoxia rep growth: further read-out of Mtb hypoxia rep, marked with its call; growth inhibition, %; measured here: M. tuberculosis growth (absorbance);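 0% = vehicle and 100% = reference antibiotic; read after six days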
An asterisk follows results filed as active; · = no result given.

Each structure is followed by: Mtb hypoxia rep	Mtb hypoxia rep growth	PrP 5UTR inh	Sa ugtP lethal	Autofluor counter	RN4220 kill	BJeLR viability
(1) COc1ccc(/C=C(\NC(=O)c2ccco2)C(=O)NC(Cc2ccccc2)C(=O)O)cc1 (configuration not stated)
 : -1	-4	-14	-4	3821	4.6	-9
(2) O=C(/C=C/c1ccccc1[N+](=O)[O-])OCC(=O)N1CCCC1
 : 0	6	-16	3	9203	-1.2	·
(3) CS(=O)(=O)NCCn1ccc2ccccc21
 : -3	10	-16	1	2915	1.3	4
(4) COc1ccc(N2CC(C(=O)Nc3nnc(SCC(=O)N4CCCC4)s3)CC2=O)cc1 (configuration not stated)
 : -2	3	-1	-2	5206	1.3	1
(5) O=C1c2ccccc2S(=O)(=O)c2cc(N3CCN(C(=O)c4ccccc4)CC3)ccc21
 : 0	-6	·	10	·	12	-5
(6) N#Cc1cc(-c2ccccc2)cnc1Sc1ccccc1
 : 8	4	-24	53	10210	2.7	2
(7) CC1CCc2c(sc(NC(=O)COC(=O)c3ccc(NC(=O)CC#N)cc3)c2C#N)C1 (configuration not stated)
 : 7	4	-33	-19	6817	-3.6	-11
(8) COc1ccc(NC2CCCN(C(=O)c3cccc(N4CCNC4=O)c3)C2)cc1 (configuration not stated)
 : 12	4	-5	7	5325	2.6	-4
(9) O=C(c1ccccc1)N1CCN(CC(O)COc2cccc3ccccc23)CC1 (configuration not stated)
 : 3	-3	1	4	3632	4.7	-2
(10) COc1ccccc1NC(=O)N1C[C@@H]2C[C@@H](C1)c1cccc(=O)n1C2
 : ·	·	-20	7	5528	4.0	1
(11) CCC(=O)c1cn(CCOc2ccccc2OC)c2ccccc12
 : 12	3	-20	3	4165	0.4	-9
(12) O=S(=O)(NCc1csc(-c2cccs2)n1)c1cccs1
 : 12	-1	-39	9	4117	5.4	7
(13) O=C(CSc1cccc2cccnc12)Nc1cc(C(=O)O)cc(C(=O)O)c1
 : 12	4	-1	3	3324	0.0	-4
(14) CCOC(=O)CCNC(=O)N1CCCC(C(=O)c2cccc(OC(C)C)c2)C1 (configuration not stated)
 : 9	16	-18	7	3485	4.3	1
(15) O=C1N[C@@H](Cc2ccccc2)C(=O)N2[C@H]1C[C@H]1c3ccccc3N(OOSc3ccccc3)[C@H]12
 : ·	·	-14	·	3810	·	-11

The listing continues.
Each structure is followed by: Mtb hypoxia rep	Mtb hypoxia rep growth	PrP 5UTR inh	Sa ugtP lethal	Autofluor counter	RN4220 kill	BJeLR viability
(16) N#Cc1ccc(NC(=O)Cn2cnc(S(=O)(=O)N3CCCC3)c2)cc1
 : 0	-3	-8	2	4492	-3.7	9
(17) CCOc1ccccc1OCCCC(=O)Nc1ccc(S(=O)(=O)Nc2cc(C)nc(C)n2)cc1
 : 12	35	-19	1	3383	3.3	·
(18) Cc1ccsc1C(=O)Nc1ccc(O)c(-c2nc3ccccc3s2)c1
 : 9	5	-40	-5	4365	18	16
(19) Cc1ccc(NC(=O)c2sc3ncn(CC(=O)N4CCOCC4)c(=O)c3c2C)c(Br)c1
 : ·	·	-61	·	4983	·	-11
(20) COC(=O)C=c1sc2n(c1=O)C(C)=CC(C)(C)N=2
 : 8	6	·	-1	·	12	·
(21) Cc1ccc(/C=N/Nc2ccccn2)s1
 : ·	·	-35	·	4340	·	-6
(22) S=C(NCCc1ccccc1)Nc1ccc(Br)cn1
 : 10	7	-12	-13	3496	6.0	·
(23) CCCC(=O)NC(=S)Nc1ccc(C(C)=O)cc1
 : 20	39	-12	39	2381	4.9	8
(24) O=c1c2ccccc2ccc2ccccc12
 : 10	8	-23	4	3746	9.1	·
(25) O=C(CCS(=O)(=O)c1cccs1)NC1CCCCCC1
 : 17	15	-51	8	8663	7.7	4
(26) O=C(O)/C(=N/NC(=O)c1ccc(Cl)cc1)c1ccccc1
 : ·	·	-13	·	4073	·	-5
(27) Cc1ccc(NC(=O)CS(=O)CC(=O)NCCCc2ccccc2)cc1Cl (configuration not stated)
 : -6	-3	0	-6	10535	-2.7	-2
(28) COc1ccccc1C(=O)NC(CCSC)C(=O)OCC(=O)N1CCN(S(=O)(=O)c2ccc(C)cc2)CC1 (configuration not stated)
 : 7	4	-10	-1	4001	2.2	·
(29) Clc1ccc(-c2nnc(NC3=NCCCCC3)o2)cc1
 : 10	11	35	2	3680	16	4
(30) CCNC(=O)Nc1cc(OC)c(OC)cc1C(=O)O
 : 1	-11	-17	4	3495	7.9	16

Nothing new here: 17 of the compounds above.
Each structure is followed by: Mtb hypoxia rep	Mtb hypoxia rep growth	PrP 5UTR inh	Sa ugtP lethal	Autofluor counter	RN4220 kill	BJeLR viability
(14) CCOC(=O)CCNC(=O)N1CCCC(C(=O)c2cccc(OC(C)C)c2)C1 (configuration not stated)
 : 9	16	-18	7	3485	4.3	1
(15) O=C1N[C@@H](Cc2ccccc2)C(=O)N2[C@H]1C[C@H]1c3ccccc3N(OOSc3ccccc3)[C@H]12
 : ·	·	-14	·	3810	·	-11
(16) N#Cc1ccc(NC(=O)Cn2cnc(S(=O)(=O)N3CCCC3)c2)cc1
 : 0	-3	-8	2	4492	-3.7	9
(17) CCOc1ccccc1OCCCC(=O)Nc1ccc(S(=O)(=O)Nc2cc(C)nc(C)n2)cc1
 : 12	35	-19	1	3383	3.3	·
(18) Cc1ccsc1C(=O)Nc1ccc(O)c(-c2nc3ccccc3s2)c1
 : 9	5	-40	-5	4365	18	16
(19) Cc1ccc(NC(=O)c2sc3ncn(CC(=O)N4CCOCC4)c(=O)c3c2C)c(Br)c1
 : ·	·	-61	·	4983	·	-11
(20) COC(=O)C=c1sc2n(c1=O)C(C)=CC(C)(C)N=2
 : 8	6	·	-1	·	12	·
(21) Cc1ccc(/C=N/Nc2ccccn2)s1
 : ·	·	-35	·	4340	·	-6
(22) S=C(NCCc1ccccc1)Nc1ccc(Br)cn1
 : 10	7	-12	-13	3496	6.0	·
(23) CCCC(=O)NC(=S)Nc1ccc(C(C)=O)cc1
 : 20	39	-12	39	2381	4.9	8
(24) O=c1c2ccccc2ccc2ccccc12
 : 10	8	-23	4	3746	9.1	·
(25) O=C(CCS(=O)(=O)c1cccs1)NC1CCCCCC1
 : 17	15	-51	8	8663	7.7	4
(26) O=C(O)/C(=N/NC(=O)c1ccc(Cl)cc1)c1ccccc1
 : ·	·	-13	·	4073	·	-5
(27) Cc1ccc(NC(=O)CS(=O)CC(=O)NCCCc2ccccc2)cc1Cl (configuration not stated)
 : -6	-3	0	-6	10535	-2.7	-2
(28) COc1ccccc1C(=O)NC(CCSC)C(=O)OCC(=O)N1CCN(S(=O)(=O)c2ccc(C)cc2)CC1 (configuration not stated)
 : 7	4	-10	-1	4001	2.2	·
(29) Clc1ccc(-c2nnc(NC3=NCCCCC3)o2)cc1
 : 10	11	35	2	3680	16	4
(30) CCNC(=O)Nc1cc(OC)c(OC)cc1C(=O)O
 : 1	-11	-17	4	3495	7.9	16

Other compounds
Each structure is followed by: Mtb hypoxia rep	Mtb hypoxia rep growth	PrP 5UTR inh	Sa ugtP lethal	Autofluor counter	RN4220 kill	BJeLR viability
(31) OCCC1CN(Cc2cn[nH]c2C2CCCCC2)CCN1Cc1ccccc1 (configuration not stated)
 : 13	8	-42	6	4423	1.8	-25
(32) CCOCCCNC(=S)N1CCC(C(=O)c2ccc3c(c2)OCCO3)CC1
 : 16	13	-61	2	4527	0.4	-13
(33) CSc1ccc(S(=O)(=O)Nc2ccc(OCC(=O)N3CCOCC3)cc2)cc1
 : 9	1	-18	-8	5076	34	-10
(34) CC(/C=C/c1ccco1)=N\NC(=O)c1cccc(Cl)c1
 : ·	·	-35	·	2536	·	-2
(35) O=C(CCC(=O)c1cccs1)Nc1nnc(C2CC2)s1
 : 6	-5	-28	4	·	1.0	-1
(36) CCn1c(NN=O)nc2ccccc21
 : 8	4	7	12	5723	-2.4	8
(37) ONC(=Nc1ccccc1)c1ccccc1Cl
 : 9	8	-36	-3	9410	6.2	-8
(38) Cc1cccc2sc(N3CCN(C(=O)c4cccs4)CC3)nc12
 : 12	3	-12	3	6596	5.2	-1
(39) CCCOc1c(Br)cc(C(N)=O)cc1OCC
 : 4	8	-20	33	2518	2.8	3
(40) CC1(C)Cc2noc(N)c2C(C)(C)N1O
 : 5	2	-3	11	4609	3.6	2
(41) COc1ccc(N(CC(=O)N2CCC(Cc3ccccc3)CC2)S(C)(=O)=O)cc1
 : 1	-1	6	0	3427	5.2	9
(42) COc1ccccc1C(=O)NC(=S)Nc1ccc(NC(=O)c2cccs2)cc1
 : 14	10	-8	30	2112	6.7	5
(43) CCCn1c(NC(=O)CSCC(=O)Nc2cc(C)on2)nc2ccccc21
 : -2	-12	-16	5	4107	0.1	17
(44) O=Cc1ccc(O)cc1O
 : ·	·	-8	3	5173	1.4	-5
(45) Cc1ccc(OCCSc2nnc(C)c(=O)n2N)cc1
 : 10	3	-19	4	4785	5.9	-3

An excerpt from above in order of formula weight, rising.
Each structure is followed by: Mtb hypoxia rep	Mtb hypoxia rep growth	PrP 5UTR inh	Sa ugtP lethal	Autofluor counter	RN4220 kill	BJeLR viability
(40) CC1(C)Cc2noc(N)c2C(C)(C)N1O
 : 5	2	-3	11	4609	3.6	2
(43) CCCn1c(NC(=O)CSCC(=O)Nc2cc(C)on2)nc2ccccc21
 : -2	-12	-16	5	4107	0.1	17
(42) COc1ccccc1C(=O)NC(=S)Nc1ccc(NC(=O)c2cccs2)cc1
 : 14	10	-8	30	2112	6.7	5

Continued:
Each structure is followed by: Mtb hypoxia rep	Mtb hypoxia rep growth	PrP 5UTR inh	Sa ugtP lethal	Autofluor counter	RN4220 kill	BJeLR viability
(46) COc1cc2nc(C3CCC3)nc(N3CCN(c4ccccn4)CC3)c2cc1OC
 : ·	·	-20	·	8820	·	-22
(47) COc1ccc(-c2cc3nc4n(c(=O)c3s2)CCC4)cc1
 : 5	14	35	-8	23433*	4.7	25
(48) N#Cc1c(-c2ccc(Cl)cc2)ccn2nc(CCC(=O)O)nc12
 : ·	·	-18	1	4843	2.3	1
(49) O=C(CC(Cc1ccccc1)C(=O)O)Nc1ccccc1 (configuration not stated)
 : 12	2	-17	8	3124	4.5	0
(50) CCC(=O)n1nc(-c2ccc(OC)cc2)nc1SC
 : 8	5	-24	-2	3170	4.6	-12
(51) CC(C)(C)C(=O)NC1(C(F)(F)F)NC(=O)N(Cc2ccccc2)C1=O (configuration not stated)
 : 8	6	-13	4	4326	2.7	-10
(52) O=C(CCC(=O)OCC(F)(F)C(F)F)Nc1ccccc1F
 : 3	5	-30	-8	4259	-2.0	1
(53) O=C(CN1CCSCC1)c1c[nH]c2ccccc12
 : ·	·	8	4	5089	-3.3	7
(54) COc1cccc(OC)c1C(=O)Nc1nnc(-c2cccs2)s1
 : 3	4	-26	2	4833	1.6	8
(55) CC1CCC(C(=O)NC(C(=O)NCc2cccnc2)C(C)C)CC1 (configuration not stated)
 : 7	13	-17	8	9737	2.1	4
(56) COc1cccc(N(Cc2nnc3n2CCCCC3)C(=O)Nc2ccccc2)c1
 : 20	8	-27	5	4375	5.8	·
(57) O=C(Cn1c(=O)cnc2ccccc21)N1CCN(S(=O)(=O)c2ccc(F)cc2)CC1
 : -7	-5	-12	4	5263	0.5	-2
(58) Cc1noc(C(=O)NCc2ccc(F)cc2)c1Cl
 : 5	9	-35	5	4434	5.5	9
(59) Cc1ccc(-c2nnc(N3CCOCC3)c3ccccc23)cc1S(N)(=O)=O
 : 10	0	-14	13	4486	2.2	-20
(60) O=S(=O)(Nc1ccc(S(=O)(=O)Nc2ccccc2)cc1)c1ccccc1
 : 9	-1	-10	15	8314	-4.6	6
(61) O=C(COc1ccccc1Cl)N1CCc2ccccc2C1
 : 17	11	-26	7	4105	7.2	-20
